MT1-MMP act inh – inhibitors of human MT1-MMP activation. P50281. HT1080 RFP-PRO-GFP cells, GFP/RFP ratio fluorescence, overnight; percent of plate control window, DMSO zero. GFP/RFP ratio change, % at 20 µM. 0.061% of 360,000 active;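 active means GFP/RFP ratio change of at least 30% with cell ATP level not reduced by more than half and red fluorescence within 50% of control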; further: strong numbers were not always called active
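Test system: HT1080 RFP-PRO-GFP cells; Benchmarks: DMSO and RFP-L50D-GFP cell wells; Timing: cells overnight before dosing, compound overnight, 37 °C, 5% CO2; Compound: one 20 µM compound dose with 1% DMSO; Read-out: GFP/RFP fluorescence ratio.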
CSC inhib – blocks cancer stem cells | cancer stem cell-like cells viability, luminescence | inhibition, % at 7.5 µM | 1.1% of 300,000 active | AID 2717;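 active means mean at 75% or more and at least half the replicates too; tested in HMLE shEcad cells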;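 further: 0% = median of negative and 100% = median of positive control wells; the first replicate is given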
Yeast UUG start – alters start codon recognition fidelity in yeast; AID 602363; activity score, % at 18.7 µM; S. cerevisiae UUG-firefly luciferase reporter, luminescence/redox ratio; 0.13% of 350,000 active;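 active means replicate mean at a twofold rise or more, about +100% in these data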;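 further: firefly luciferase made from a UUG start codon reports start codon fidelity; reporter light over untreated wells divided by growth signal over untreated wells; some hits fall short of that in this replicate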
eIF4H inh – inhibitors of RNA binding by human eIF4H; Q15056; eIF4H fluorescence polarization binding assay; AID 2012; inhibition, % at 35 µM; 0.94% of 290,000 active;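 active means 50% or more with normal probe brightness, or confirmed in later tests; about a fifth of its hits are not listed in these tables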;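 further: calls also rest on retests at 20 µM and on dose response follow-up; 0% = protein and probe with vehicle and 100% = probe without protein; strong numbers were not always called active; many hits fall short of the cut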
PABP polyA inh – PABP-poly(A) binding inhibition; P11940; PABP-poly(A) RNA binding, fluorescence polarization; inhibition, % at 35 µM; 1% of 290,000 active;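 active means 50% or more with normal probe brightness, or confirmed in later tests; about a fifth of its hits are not listed in these tables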;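 further: calls also rest on retests at 20 µM and on dose response follow-up; controls were probe without protein and protein plus probe with vehicle; some compounds called inactive have numbers as strong as hits; many hits fall short of the cut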
Target sequence (P11940 whole entry, looked up): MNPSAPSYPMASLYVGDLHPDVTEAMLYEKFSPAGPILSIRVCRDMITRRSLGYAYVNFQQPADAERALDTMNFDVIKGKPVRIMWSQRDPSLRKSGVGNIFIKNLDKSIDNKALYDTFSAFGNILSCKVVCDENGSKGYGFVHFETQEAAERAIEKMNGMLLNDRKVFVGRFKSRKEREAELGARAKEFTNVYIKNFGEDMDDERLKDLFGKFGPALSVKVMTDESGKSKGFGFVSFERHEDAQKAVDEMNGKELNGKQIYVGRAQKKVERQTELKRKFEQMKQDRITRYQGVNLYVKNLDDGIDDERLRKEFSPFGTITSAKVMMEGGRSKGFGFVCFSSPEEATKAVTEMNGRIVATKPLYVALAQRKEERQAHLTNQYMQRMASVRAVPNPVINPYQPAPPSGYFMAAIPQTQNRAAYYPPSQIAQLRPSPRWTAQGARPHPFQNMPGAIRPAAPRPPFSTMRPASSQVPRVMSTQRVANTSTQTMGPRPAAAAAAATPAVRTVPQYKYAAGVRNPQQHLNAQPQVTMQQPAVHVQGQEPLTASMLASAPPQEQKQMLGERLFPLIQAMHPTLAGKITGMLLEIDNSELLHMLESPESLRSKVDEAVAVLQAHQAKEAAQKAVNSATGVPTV
Rce1 inhib – inhibitors of yeast Ras-converting enzyme | Q03530 | yeast membranes, quenched prenylated peptide cleavage fluorescence | calls only | 0.27% of 290,000 active;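 active means fall in fluorescence gain of 50% or more versus controls, with final raw signal at or below 3038400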;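 further: plate controls were neutral control wells for no effect and wells lacking membranes for full effect; tested at 10 µM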
Target sequence (Q03530 whole entry, looked up): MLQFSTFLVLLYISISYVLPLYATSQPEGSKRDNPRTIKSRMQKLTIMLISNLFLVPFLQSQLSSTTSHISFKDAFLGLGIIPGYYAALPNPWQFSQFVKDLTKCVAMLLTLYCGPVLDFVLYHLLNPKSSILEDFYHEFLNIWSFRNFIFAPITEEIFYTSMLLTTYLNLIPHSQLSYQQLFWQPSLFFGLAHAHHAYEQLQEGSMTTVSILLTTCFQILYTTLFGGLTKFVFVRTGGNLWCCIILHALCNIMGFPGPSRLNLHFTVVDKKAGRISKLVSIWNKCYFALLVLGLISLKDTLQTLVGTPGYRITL
HIV Env fusion – blocks HIV Env-driven cell-cell fusion; 1.1% of 360,000 active; AID 651610; inhibition, % at 12.3 µM; HeLa-JRFL Env/CEM21 cell fusion, luciferase;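 active means mean replicate inhibition score of at least 50 and every replicate individually at or above 50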;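 further: 0% = plate neutral controls and 100% = maraviroc near 300 nM; one replicate is shown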
eIF4H inh retest – further read-out of eIF4H inh, marked with its call; inhibition, %; compound at 20 µM; confirmation average;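 mean of two retest wells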
PABP polyA inh retest – also measured in PABP polyA inh; calls as there; inhibition, %; compound at 20 µM; confirmation repeats;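 mean of two retest wells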
MT1-MMP act inh RFP – further read-out of MT1-MMP act inh, marked with its call; RFP signal change, %; measured here: RFP expression control read;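 0 = vehicle wells; hits needed this value within 50% of zero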
An asterisk follows results filed as active; i = inactive; · = no result given.

SMILES	MT1-MMP act inh	MT1-MMP act inh RFP	CSC inhib	Yeast UUG start	eIF4H inh	PABP polyA inh	Rce1 inhib	HIV Env fusion	others
CCOC(=O)CC(NC(=O)Cc1cccs1)c1ccccc1Cl (stereo not given)	-3	-1	0	-3	2	12	i	0
O=C(N/N=C/C=C\c1ccccc1[N+](=O)[O-])c1ccco1	3	2	-5	·	-2	-4	i	1
CCOC(=O)[C@H]1[C@H]2COc3ccc(C)cc3[C@@H]2N2C(=O)c3cc(Cl)ccc3NC(=O)[C@@]12C	-7	-9	16	-9	·	·	·	-42
CCCc1ncc(CN2CCC(C(=O)Nc3cccc(-c4cscn4)c3)CC2)cn1	-2	-19	-3	-13	-2	-3	i	11
O=C(CSc1nnc(-c2ccccc2)n1Cc1ccco1)Nc1ccc(S(=O)(=O)N2CCCC2)cc1	-8	-13	6	-12	2	0	i	·
Cn1c(SCc2ccccc2)nnc1-c1ccc2c(c1)OCO2	6	4	-6	-16	2	-3	i	·
C[C@H](O)[C@@H]1CN2CCc3c([nH]c4ccccc34)[C@@H]2C[C@@H]1N(C)C(=O)OCc1ccccc1	-10	6	·	-1	·	·	·	10
CC1CN(C(=O)c2cccc(COc3ccc(Br)cc3)c2)CC(C)O1 (stereo not given)	0	-1	·	·	-3	-10	i	20
CC(C)(C)NC(=O)/C=C/c1cccc(C(F)(F)F)c1	-1	2	-7	-18	-7	-5	i	57
CCOC(=O)c1c(C)[nH]c(C(=O)/C(C#N)=C/c2ccc(OC)c(OC)c2)c1C	-26	4	-15	-18	29	9	i	-17
COc1cc(C2/C(=C(\O)c3ccc4c(c3)CC(C)O4)C(=O)C(=O)N2CCCn2ccnc2)cc(OC)c1OC (stereo not given)	3	-2	-13	-6	-11	0	i	-5
N/C(Cc1nc(-c2ccc(F)cc2)cs1)=N\O	0	-1	-27	-9	-7	11	i	6
Cc1ccc2cccc(OCC(=O)NCc3ccco3)c2n1	-3	-5	-9	-12	12	10	i	-38
CCOC(=O)c1cnc2c(C(F)(F)F)cccc2c1NCCCN1CCOCC1	1	-6	-13	1	-9	-9	i	13
c1ccc(-c2csc(-c3ccc(-c4csnn4)cc3)n2)cc1	1	2	-3	·	10	-7	i	-25
CCc1nc(SCc2cccnc2)c2c(=O)n(C)c(=O)n(C)c2n1	-3	-5	-7	-13	0	1	i	-11
CCOc1ccc2nc(SC(C)C(N)=O)[nH]c2c1 (stereo not given)	2	7	-6	-22	-3	-8	i	-256
CCSc1ncc(C)cc1[N+](=O)[O-]	3	0	-8	·	0	8	i	-5
O=C(NCCc1ccccc1)C1CCN(Cc2ccccc2F)CC1	1	-1	7	-3	13	-8	i	·
COc1ccc(/C(C)=N/NC(=O)CNC(=O)C2COc3ccccc3O2)c(OC)c1 (stereo not given)	3	-1	8	·	0	5	i	5
Cc1ccc([N+](=O)[O-])cc1N=Nc1c(-c2ccc([N+](=O)[O-])cc2)[nH]n(C(N)=S)c1=O	-11	-39	·	-20	64	1	i	·	eIF4H inh retest=10;PABP polyA inh retest=28
COc1ccc(F)c(CN2CCC(n3nccc3NC(=O)CCCc3ccccc3)CC2)c1	-3	-3	-5	8	-9	9	i	-30
O=C(COC(=O)c1cc[n+]([O-])cc1)Nc1cc([N+](=O)[O-])ccc1Cl	-2	1	8	·	·	·	i	-1
CC(C)c1onc(C(=O)NCc2ccc(F)cc2)c1[N+](=O)[O-]	5	4	3	·	2	-2	i	·
COC(=O)c1nc(-c2ccc(C)cc2)[nH]c1C(C)(C)C	-1	-1	·	-8	·	·	·	29

Some of these compounds in order of length of the SMILES, lowest first.
SMILES	MT1-MMP act inh	MT1-MMP act inh RFP	CSC inhib	Yeast UUG start	eIF4H inh	PABP polyA inh	Rce1 inhib	HIV Env fusion	others
CCSc1ncc(C)cc1[N+](=O)[O-]	3	0	-8	·	0	8	i	-5
CCOc1ccc2nc(SC(C)C(N)=O)[nH]c2c1 (stereo not given)	2	7	-6	-22	-3	-8	i	-256
Cc1ccc2cccc(OCC(=O)NCc3ccco3)c2n1	-3	-5	-9	-12	12	10	i	-38
c1ccc(-c2csc(-c3ccc(-c4csnn4)cc3)n2)cc1	1	2	-3	·	10	-7	i	-25
O=C(N/N=C/C=C\c1ccccc1[N+](=O)[O-])c1ccco1	3	2	-5	·	-2	-4	i	1
CC1CN(C(=O)c2cccc(COc3ccc(Br)cc3)c2)CC(C)O1 (stereo not given)	0	-1	·	·	-3	-10	i	20
CCOC(=O)c1cnc2c(C(F)(F)F)cccc2c1NCCCN1CCOCC1	1	-6	-13	1	-9	-9	i	13
CCCc1ncc(CN2CCC(C(=O)Nc3cccc(-c4cscn4)c3)CC2)cn1	-2	-19	-3	-13	-2	-3	i	11
COc1ccc(/C(C)=N/NC(=O)CNC(=O)C2COc3ccccc3O2)c(OC)c1 (stereo not given)	3	-1	8	·	0	5	i	5
O=C(COC(=O)c1cc[n+]([O-])cc1)Nc1cc([N+](=O)[O-])ccc1Cl	-2	1	8	·	·	·	i	-1
CCOC(=O)c1c(C)[nH]c(C(=O)/C(C#N)=C/c2ccc(OC)c(OC)c2)c1C	-26	4	-15	-18	29	9	i	-17
O=C(CSc1nnc(-c2ccccc2)n1Cc1ccco1)Nc1ccc(S(=O)(=O)N2CCCC2)cc1	-8	-13	6	-12	2	0	i	·
COc1cc(C2/C(=C(\O)c3ccc4c(c3)CC(C)O4)C(=O)C(=O)N2CCCn2ccnc2)cc(OC)c1OC (stereo not given)	3	-2	-13	-6	-11	0	i	-5
Cc1ccc([N+](=O)[O-])cc1N=Nc1c(-c2ccc([N+](=O)[O-])cc2)[nH]n(C(N)=S)c1=O	-11	-39	·	-20	64	1	i	·	eIF4H inh retest=10;PABP polyA inh retest=28
CCOC(=O)[C@H]1[C@H]2COc3ccc(C)cc3[C@@H]2N2C(=O)c3cc(Cl)ccc3NC(=O)[C@@]12C	-7	-9	16	-9	·	·	·	-42

New compounds follow:
SMILES	MT1-MMP act inh	MT1-MMP act inh RFP	CSC inhib	Yeast UUG start	eIF4H inh	PABP polyA inh	Rce1 inhib	HIV Env fusion	others
CC(=O)c1cccc(CN2CCc3ccc(NC(=O)C4CCCO4)cc3C2)c1 (stereo not given)	1	1	-15	8	0	-2	i	1
CC(C)(C(=O)N1CCC1(C)C(=O)NC1Cc2ccccc2C1)c1ccccc1 (stereo not given)	-1	-2	·	24	·	·	·	6
CC(=O)N1CC2(CC(=O)OC(C)C)CN(C(C)=O)CC(CC(=O)OC(C)C)(C1)C2=O	2	7	·	0	-5	2	i	·
CCNc1ccc2c(Cl)cc(=O)oc2c1	10	-2	-6	·	9	15	i	·
CCN(CC)S(=O)(=O)c1ccc(Cl)c(NC(=O)c2ccccc2C)c1	15	9	-8	-17	8	-6	i	·
COc1cc(OC)c(N2CC(C(=O)Nc3cccc(C(=O)NC4CC4)c3)CC2=O)cc1Cl (stereo not given)	7	2	·	-4	·	·	·	-4
COc1ccc(NC(=O)C2(C)CCN2C(=O)c2ccc(C(C)(C)C)cc2)cc1OC (stereo not given)	-2	-23	·	-1	·	·	·	-9
O=C(Nc1ccc(N2CCCCC2)c(Cl)c1)c1cccnc1	-9	11	·	-17	19	21	i	-117
COC(=O)c1ccc(C2c3c(oc4ccc(F)cc4c3=O)C(=O)N2CCO)cc1 (stereo not given)	3	5	1	-9	-8	-3	i	·
Cc1ccc2c(c1)N(Cc1cccc(Cl)c1)C(=O)c1cccnc1O2	0	2	2	·	6	0	i	16
CCn1c2ccc(C)cc2c2nnc(SCCN3CCCCC3)nc21	-4	-3	15	-9	-8	7	i	-12
CS(=O)(=O)N1CCc2nc(-c3ccccc3)sc2C1	2	-1	3	-26	-3	-8	i	-95
NC(=S)NC1CC2C=CC1C2 (stereo not given)	3	2	-8	-31	4	5	·	-6
COc1cc(C2/C(=C(/O)c3ccc(OCC(C)C)cc3)C(=O)C(=O)N2CCN(C)C)ccc1O (stereo not given)	4	3	10	-21	-14	2	i	·
Cc1cccc(NC(=O)CCN2C(=O)c3ccccc3S2(=O)=O)c1C	-3	1	-9	-21	85	10	i	·	eIF4H inh retest=16;PABP polyA inh retest=4
O=C(Cn1c(=O)c2c(ncn2C2CCCC2)n(Cc2ccccc2)c1=O)N1CCc2ccccc21	1	-4	·	1	0	-3	i	-72
O=C(COC(=O)CCCC1=NS(=O)(=O)c2ccccc2N1)Nc1ccc(Br)cc1	-12	-1	5	4	2	1	i	1
CC(C)C(=O)NC(=S)Nc1ccccc1F	-5	-5	7	-16	-13	-4	i	-98
COC(=O)CN(c1cccc(F)c1)S(C)(=O)=O	-1	6	-9	-10	3	4	i	·
CN1C(C(=O)Nc2cccc(O)c2)=CC(c2ccco2)=NS1(=O)=O	1	3	15	-10	-2	5	i	-51
COc1ccc2[nH]c(=O)c(CN(C(=O)c3cccnc3)c3ccc(C)cc3)cc2c1	-4	-3	-7	6	2	4	i	·
CCOC(=O)c1c(C)[nH]c(C(=O)CSc2nnc(-c3cccs3)n2Cc2ccccc2)c1C	-3	-8	19	·	7	3	i	-103
CCOCCn1[nH]c2ccccc2c1=O	-2	1	-2	-22	·	·	·	-11
N#C/C(=C\c1c(N2CCN(c3ccccc3)CC2)nc2ccccn2c1=O)S(=O)(=O)c1ccccc1	0	2	1	-18	-12	4	i	6
CCn1nc(C)c(/C=N/NC(=S)Nc2ccc(Cl)cc2Cl)c1C	0	-3	26	-18	-8	9	i	-1
SMILES	MT1-MMP act inh	MT1-MMP act inh RFP	CSC inhib	Yeast UUG start	eIF4H inh	PABP polyA inh	Rce1 inhib	HIV Env fusion	others
CCn1ccc(C(=O)NC2CCCC2)n1	-1	3	-4	0	0	4	i	3
Cc1cc(C)cc(N(CC(=O)NCc2ccccc2)C(=O)CCC(=O)Nc2ccccn2)c1	-2	2	-10	-10	1	6	·	6
O=C(NNC1=C(C(=O)C(F)(F)F)CCC1)c1ccccc1Cl	10	8	56	-22	8	3	i	·
COC(=O)Cc1c(O)ccn(Cc2cccc(C(F)(F)F)c2)c1=O	-2	5	4	1	2	3	i	11
CCCn1c(SCC(=O)Nc2ccccc2OC)nnc1-c1ccco1	-6	-9	47	-11	4	-3	i	-52
Cc1cc(S(=O)(=O)N(Cc2ccccn2)Cc2ccco2)ccc1-n1cnnn1	-4	-1	-18	-26	3	-1	i	·
CCOC(=O)c1c(C)c(-c2ccccc2)n(CC(=O)N2CCN(C)CC2)c1C	-2	2	-12	-22	-6	7	i	-4
Cc1ccccc1Cn1c(=O)n(-c2ccccc2)c(=O)c2ccc(C(=O)NCc3ccco3)cc21	-5	-1	-1	0	4	0	i	19
COC(=O)c1ccc(NC(=O)C2CC(=O)N(c3ccc(C)cc3)C2)cc1 (stereo not given)	-1	1	-6	-8	2	9	·	·
COCC(=O)N(Cc1cc2cc(OC)ccc2[nH]c1=O)c1ccc(C)cc1	8	4	-5	-3	-2	-10	i	·
Cc1cc(S(=O)(=O)NC2CCCC2)ccc1F	3	7	-8	-2	-4	31	i	·
CN1C(=O)C(CC(=O)N2CCN(C(c3ccccc3)c3ccccc3)CC2)N(C)C1=O (stereo not given)	-12	-4	1	-13	0	2	i	-33
COc1ccc(CNC(=S)Nc2ccccc2-c2ccccc2)cc1	-1	-2	·	·	-5	9	i	·
COc1ccc(C(=O)N2CCN(C)C(C)C2)cc1OC1CCN(C(C)=O)CC1 (stereo not given)	0	3	-15	-8	5	-13	·	15
COc1cccc(N2CC(C(=O)NNC(=O)c3ccc(Cl)cc3)CC2=O)c1 (stereo not given)	3	5	-6	-25	-4	0	i	·
COc1ccc(-c2[nH]ncc2CN(C)C(C)c2ccon2)c(OC)c1 (stereo not given)	1	2	-4	-4	2	-1	i	-3
C/C(CCc1ccc2c(c1)OCO2)=N\NC(=O)c1ccc(C)cc1C	1	2	-11	·	2	2	i	-5

These rows are one share of the data (hit frequency here may not be typical).
